# FGF22 binding: shifts melting point of recombinant human FGF22 | Q9HCT0 | recombinant FGF22 thermal shift, SYPRO orange fluorescence; percent of sucrose octasulfate shift, DMSO zero | calls only at 9.99 µM | 1.5% of 340,000 active | AID 651658;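 active = melting point raised past a set limit in the mean and every replicate; three in four hits are not shown here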
# Target sequence (Q9HCT0 whole entry, looked up): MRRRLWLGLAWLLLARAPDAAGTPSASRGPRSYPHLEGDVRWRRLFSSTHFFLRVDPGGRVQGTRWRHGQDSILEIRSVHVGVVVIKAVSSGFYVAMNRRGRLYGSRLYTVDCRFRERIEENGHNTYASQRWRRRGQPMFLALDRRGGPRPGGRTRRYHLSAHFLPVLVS
# Calls only; i = inactive. These rows are one share of the data; rates above refer to the full screens.
Compound | FGF22 binding
CC(C)CC#Cc1cnc2c(c1)C(=O)N([C@@H](C)CO)C[C@H](C)[C@@H](CN(C)CC1CCOCC1)O2 | i
CC(=O)N(Cc1ccccc1)c1nccs1 | i
COc1ccc2c3c(n(C)c2c1)[C@@H](CO)N(C(=O)c1cccnc1)CC31CCN(S(=O)(=O)c2ccccc2)CC1 | i
CC(=O)N1[C@H](CO)[C@@H]2c3ccccc3N(S(=O)(=O)c3ccccc3C)C[C@@H]21 | i
COc1ccc2c3c(n(C)c2c1)[C@H](CO)N(Cc1ccccc1F)CC31CCN(C(=O)C2CCC2)CC1 | i
Cc1noc(C)c1NC(=O)Nc1cccc2c1O[C@H](CN(C)Cc1ccc(C(=O)Nc3ccccc3N)cc1)[C@H](C)CN([C@H](C)CO)C2=O | i
COCc1[nH]nc2c1C(c1ccc(C)cc1)N(Cc1ccccc1)C2=O (stereo not drawn) | i
COc1ccccc1-c1ccccc1[C@H]1[C@H](C#N)N(C(=O)CN(C)C)[C@H]1CO | i
C[C@H]1CN([C@@H](C)CO)C(=O)c2cccc(NC(=O)Nc3cccc4ccccc34)c2O[C@@H]1CN(C)C(=O)Nc1ccc(F)cc1 | i
CCCNC(=O)C[C@@H]1C[C@@H]2c3cc(NS(=O)(=O)c4cccc(OC)c4)ccc3O[C@@H]2[C@@H](CO)O1 | i
Cc1noc(C)c1NC(=O)Nc1ccc2c(c1)C(=O)N([C@H](C)CO)C[C@@H](C)[C@H](CN(C)Cc1ccc(Cl)c(Cl)c1)OCCCC[C@@H](C)O2 | i
C[C@H](CO)N1C[C@H](C)[C@H](CN(C)C(=O)C2CCOCC2)Oc2ncc(C#CCc3ccccc3)cc2C1=O | i
C[C@H]1CN([C@@H](C)CO)C(=O)Cc2cc(NC(=O)Cc3ccccc3)ccc2O[C@@H]1CN(C)S(=O)(=O)c1ccccc1 | i
C[C@H](CO)N1C[C@H](C)[C@H](CN(C)S(C)(=O)=O)Oc2ncc(C#CC3(O)CCCC3)cc2C1=O | i
CCCN1[C@H](C(=O)N2CCOCC2)[C@@H](CO)[C@@H]2Cn3c(ccc(-c4ccncc4)c3=O)[C@@H]21 | i

# Rewritten field by field: part of the list above
> COc1ccccc1-c1ccccc1[C@H]1[C@H](C#N)N(C(=O)CN(C)C)[C@H]1CO
  FGF22 binding: i

> CC(=O)N(Cc1ccccc1)c1nccs1
  FGF22 binding: i

> COc1ccc2c3c(n(C)c2c1)[C@H](CO)N(Cc1ccccc1F)CC31CCN(C(=O)C2CCC2)CC1
  FGF22 binding: i

> C[C@H]1CN([C@@H](C)CO)C(=O)Cc2cc(NC(=O)Cc3ccccc3)ccc2O[C@@H]1CN(C)S(=O)(=O)c1ccccc1
  FGF22 binding: i

# Next section.
Compound | FGF22 binding
COc1ccc(NC(=O)N2CCCCN3[C@H](CO)[C@H](c4ccc(-c5ccccc5C)cc4)[C@@H]3C2)cc1 | i
COCC#Cc1ccc2c(c1)O[C@@H](CN(C)C(=O)CN(C)C)[C@H](C)CN([C@@H](C)CO)S2(=O)=O | i
CC(C)NC(=O)Nc1ccc2c(c1)CC(=O)N([C@@H](C)CO)C[C@@H](C)[C@H](CN(C)Cc1ccc(-c3ccccc3)cc1)O2 | i
C[C@@H]1CN([C@H](C)CO)C(=O)c2cc(C#Cc3ccccn3)cnc2O[C@@H]1CN(C)C(=O)c1cnccn1 | i
C[C@@H]1CN([C@@H](C)CO)S(=O)(=O)c2ccc(C#Cc3ccncc3)cc2O[C@@H]1CN(C)C(=O)c1ccncc1 | i
CO[C@@H]1CN(C)C(=O)c2cc(NC(=O)C3CCC3)ccc2OC[C@@H](C)NC[C@H]1C | i
CCC(=O)Nc1ccc2c(c1)C(=O)N(C)[C@@H]1CC[C@@H](CC(=O)NCCc3ccccc3)O[C@H]1CO2 | i
O=C(C[C@@H]1C[C@H]2c3cc(NS(=O)(=O)c4ccc(F)cc4)ccc3O[C@H]2[C@@H](CO)O1)NCC1CC1 | i
C[C@@H]1CN([C@@H](C)CO)C(=O)Cc2cc(NC(=O)CCC(F)(F)F)ccc2O[C@H]1CN(C)C | i
CC(=O)N(C)C[C@@H]1Oc2cc(-c3ccccc3C)ccc2S(=O)(=O)N([C@H](C)CO)C[C@@H]1C | i
Cc1ccccc1-c1ccc2c(c1)O[C@@H](CN(C)Cc1ccc(C(=O)O)cc1)[C@H](C)CN([C@H](C)CO)S2(=O)=O | i
CC(C)NC(=O)Nc1ccc2c(c1)C(=O)N([C@H](C)CO)C[C@H](C)[C@H](CN(C)Cc1ccc(Cl)c(Cl)c1)O2 | i
O=C(CC1CC1)N1[C@H](CO)[C@@H]2c3ccccc3N(S(=O)(=O)c3ccccc3F)C[C@@H]21 | i
C[C@H](CO)N1C[C@H](C)[C@@H](CN(C)S(C)(=O)=O)Oc2cc(-c3cccc(F)c3)ccc2S1(=O)=O | i
Cc1ccc(S(=O)(=O)NCC[C@H]2CC[C@@H](NC(=O)CC3CC3)[C@H](CO)O2)cc1 | i
CCC(=O)N1CC2(C1)CN(C(=O)Cc1ccccc1)[C@H](CO)c1c2c2ccc(OC)cc2n1C | i
C[C@@H]1CCCCO[C@H](CN(C)S(=O)(=O)c2cn(C)cn2)[C@H](C)CN([C@@H](C)CO)C(=O)c2cc(NC(=O)NC3CCCCC3)ccc2O1 | i
O=C(Nc1ccccc1F)N[C@H]1CC[C@@H](CCNS(=O)(=O)c2ccc(Cl)cc2)O[C@@H]1CO | i
C[C@H](CO)N1C[C@H](C)[C@H](CN(C)S(C)(=O)=O)OCCCC[C@H](C)Oc2ccc(NC(=O)Nc3ccc(F)cc3)cc2C1=O | i
C[C@H](CO)N1C[C@H](C)[C@@H](CN(C)Cc2ccc(F)cc2)Oc2ncc(-c3cccc(C#N)c3)cc2C1=O | i
CC(=O)N(C)C[C@@H]1OCc2ccccc2-c2ccccc2C(=O)N([C@@H](C)CO)C[C@@H]1C | i
CO[C@@H](CN(C)Cc1ccc2c(c1)OCO2)[C@@H](C)CN(C(=O)c1ccccc1)[C@H](C)CO | i
COc1cccc(-c2cn(CC[C@H]3CC[C@@H](NC(=O)CC4CC4)[C@H](CO)O3)nn2)c1 | i
COc1cccc(C#Cc2cnc3c(c2)C(=O)N([C@H](C)CO)C[C@@H](C)[C@H](CN(C)C)O3)c1 | i
Nc1[nH]c(C(=O)c2ccc(Br)cc2)c(-c2c(F)cccc2F)c1C(=O)NCCc1c[nH]c2ccccc12 | i
C[C@H](CO)N1C[C@H](C)[C@H](CN(C)Cc2ccc(-c3ccccc3)cc2)OCc2ccccc2-c2c(n(C)c3ccccc23)C1=O | i
O=C(C[C@H]1C[C@H]2c3cc(NC(=O)C4CCC4)ccc3O[C@H]2[C@H](CO)O1)NCc1ccccn1 | i
CO[C@H]1CN(C)C(=O)c2ccc(NC(=O)c3ccccc3)cc2OC[C@H](C)N(C(=O)CN(C)C)C[C@H]1C | i
Cc1ccc(-c2cnc3c(c2)C(=O)N([C@@H](C)CO)C[C@@H](C)[C@H](CN(C)C(=O)c2ccc(F)cc2)O3)cc1 | i
CS(=O)(=O)Nc1ccc2c(c1)[C@H]1C[C@@H](CC(=O)NCc3ccc(-c4ccccc4)cc3)O[C@@H](CO)[C@H]1O2 | i
C[C@H]1CN([C@@H](C)CO)C(=O)c2cc(NC(=O)CCC(F)(F)F)ccc2O[C@H]1CN(C)C(=O)Nc1cccc2ccccc12 | i
C[C@H]1CN([C@@H](C)CO)C(=O)c2cccc(NC(=O)C3CCOCC3)c2O[C@H]1CN(C)Cc1ccc(C(=O)Nc2ccccc2N)cc1 | i
CNC[C@@H]1Oc2ccc(NC(=O)Cn3cnnn3)cc2C(=O)N([C@H](C)CO)C[C@H]1C | i
C[C@H]1CN([C@@H](C)CO)C(=O)c2cccc(NS(=O)(=O)c3cccs3)c2O[C@@H]1CN(C)C(=O)Nc1ccc(C(F)(F)F)cc1 | i
CN(C)CC#Cc1ccc([C@H]2[C@@H](CO)N(C(=O)C3CC3)[C@H]2C#N)cc1 | i
O=C(NCC[C@@H]1CC[C@@H](NC(=O)C2CCCC2)[C@H](CO)O1)c1cnccn1 | i
C[C@@H]1CN([C@@H](C)CO)C(=O)c2cc(NC(=O)C3CCCCC3)ccc2O[C@@H]1CN(C)C | i
O=C(N[C@H]1C=C[C@H](CC(=O)N2CCCCC2)O[C@@H]1CO)c1ccccn1 | i
C[C@@H]1CN([C@@H](C)CO)C(=O)c2cc(NC(=O)Cc3ccccc3)ccc2O[C@@H](C)CCCCO[C@H]1CN(C)Cc1ccc(C(=O)O)cc1 | i
C[C@H](CO)N1C[C@H](C)[C@@H](CN(C)S(=O)(=O)c2cn(C)cn2)OCCCC[C@H](C)Oc2ccc(NS(=O)(=O)c3ccccc3)cc2C1=O | i
COC(=O)C[C@@H]1C=C[C@H](NS(=O)(=O)c2ccccc2F)[C@H](CO)O1 | i
COC(=O)C[C@@H]1CC[C@H]2[C@@H](COc3ccc(NC(=O)Nc4cccc(Cl)c4)cc3C(=O)N2C)O1 | i
CC(C)CC#Cc1ccc([C@H]2[C@H](CO)N3CCCCN(C(=O)NC4CCCC4)C[C@@H]23)cc1 | i
CCC(=O)N1C[C@H](C)[C@H](OC)CN(C)C(=O)c2cc(NS(C)(=O)=O)ccc2OC[C@H]1C | i
O=C(N[C@@H]1CC[C@H](CCNC(=O)C2CCCC2)O[C@@H]1CO)c1ccccn1 | i

# Three structures out of the list, sorted by length of the SMILES, low to high.
Compound | FGF22 binding
COC(=O)C[C@@H]1C=C[C@H](NS(=O)(=O)c2ccccc2F)[C@H](CO)O1 | i
CC(C)CC#Cc1ccc([C@H]2[C@H](CO)N3CCCCN(C(=O)NC4CCCC4)C[C@@H]23)cc1 | i
C[C@@H]1CN([C@@H](C)CO)C(=O)c2cc(NC(=O)C3CCCCC3)ccc2O[C@@H]1CN(C)C | i

# Continued:
Compound | FGF22 binding
C[C@H](CO)N1C[C@H](C)[C@H](CN(C)CC2CC2)Oc2ccc(NC(=O)Cn3cnnn3)cc2CC1=O | i
COC(=O)C[C@@H]1CC[C@H]2[C@H](COc3ccc(NC(=O)Nc4ccc(C#N)cc4)cc3C(=O)N2C)O1 | i
O=C(C[C@@H]1C[C@H]2c3cc(NC(=O)Nc4ccccc4)ccc3O[C@H]2[C@H](CO)O1)NCc1ccccc1 | i
Cc1noc(C)c1NC(=O)Nc1ccc2c(c1)CC(=O)N([C@H](C)CO)C[C@@H](C)[C@H](CN(C)Cc1ccc(-c3ccccc3)cc1)O2 | i
COc1ccc(CN(C)C[C@H]2Oc3ccc(NS(C)(=O)=O)cc3CC(=O)N([C@H](C)CO)C[C@H]2C)cc1 | i
O=C(CN1CCOCC1)N1CCCCN2[C@H](C1)[C@@H](c1ccc(/C=C/c3ccccc3)cc1)[C@@H]2CO | i
C[C@H](CO)N1C[C@H](C)[C@H](CN(C)Cc2ccc(Oc3ccccc3)cc2)Oc2ccc(NS(=O)(=O)c3ccccc3)cc2CC1=O | i
C[C@H](CO)N1C[C@H](C)[C@H](CN(C)Cc2ccc(C(=O)O)cc2)Oc2c(NC(=O)c3ccncc3)cccc2C1=O | i
COc1ccc(C#Cc2ccc([C@H]3[C@@H](CO)N4CCCCN(Cc5ccccc5F)C[C@H]34)cc2)cc1 | i
C[C@@H]1CN([C@@H](C)CO)C(=O)Cc2cc(NS(=O)(=O)c3ccc(Cl)cc3)ccc2O[C@H]1CN(C)Cc1ccc(C(=O)O)cc1 | i
O=C(C[C@H]1C[C@H]2c3cc(NC(=O)Nc4ccccc4F)ccc3O[C@H]2[C@@H](CO)O1)NCC(F)(F)F | i
C[C@H]1CN([C@@H](C)CO)C(=O)c2cc(-c3ccc(F)cc3)cnc2O[C@@H]1CN(C)Cc1ccccn1 | i
C[C@H]1CN([C@@H](C)CO)C(=O)Cc2cc(NC(=O)Cc3ccccc3)ccc2O[C@H]1CN(C)Cc1ccc2c(c1)OCO2 | i
C[C@H]1CN([C@@H](C)CO)C(=O)c2cc(-c3cncnc3)cnc2O[C@H]1CN(C)Cc1cncnc1 | i
Cc1noc(C)c1NC(=O)N(C)C[C@@H]1OCCCC[C@H](C)Oc2ccc(NC(=O)Nc3ccc4c(c3)OCO4)cc2C(=O)N([C@H](C)CO)C[C@@H]1C | i
C[C@@H]1CN([C@H](C)CO)C(=O)c2cc(/C=C/c3ccccc3)cnc2O[C@@H]1CN(C)C(=O)Nc1ccccc1F | i
CO[C@H](CN(C)Cc1cc(F)ccc1F)[C@H](C)CN(C(=O)Nc1ccc(F)cc1)[C@H](C)CO | i
CCc1nc(N2[C@H](CO)[C@@H](c3ccccc3-c3ccccc3F)[C@@H]2C#N)sc1C | i
Cc1ccccc1-c1cnc2c(c1)C(=O)N([C@@H](C)CO)C[C@H](C)[C@H](CN(C)C(=O)c1cccnc1)O2 | i
C[C@H](NC(=O)C[C@@H]1C=C[C@@H](NC(=O)C2CC2)[C@H](CO)O1)c1ccccc1 | i
CN(C)C(=O)C[C@@H]1CC[C@H]2[C@H](COc3ccc(NC(=O)C4CC4)cc3C(=O)N2C)O1 | i
CC(C)C#Cc1ccc2c(c1)O[C@H](CN(C)Cc1ccccn1)[C@@H](C)CN([C@H](C)CO)S2(=O)=O | i
O=C(O)C[C@H]1C[C@@H]2c3cc(NC(=O)c4cccnc4)ccc3O[C@@H]2[C@@H](CO)O1 | i
CO[C@H]1CN(C)C(=O)c2ccc(NC(=O)C3CC3)cc2OC[C@H](C)N(C(=O)Cc2ccccn2)C[C@@H]1C | i
O=C(C[C@@H]1CC[C@H]2[C@@H](COC[C@@H](O)CN2CC2CCOCC2)O1)NCC1CC1 | i
C[C@@H]1CN([C@@H](C)CO)C(=O)c2cc(NC(=O)NC3CCCCC3)ccc2O[C@@H]1CN(C)C(=O)Nc1ccc2c(c1)OCO2 | i
